Screening results as filed in PubChem.
D2 potentiator = potentiates the human D2 dopamine receptor allosterically. P14416. potentiation, % (no concentration beside the values). 0.23% of 360,000 active. DiscoveRx D2 beta-arrestin cells, luminescence, 90 min; 100% = 57 uM dopamine signal. AID 624464; active = potentiation of 50% or more; inconclusive = 30% to 50%; inactive = 30% or less;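 also: compound concentration not given in the record; tested on top of an EC20 dose of dopamine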
Target sequence (P14416 whole entry, looked up): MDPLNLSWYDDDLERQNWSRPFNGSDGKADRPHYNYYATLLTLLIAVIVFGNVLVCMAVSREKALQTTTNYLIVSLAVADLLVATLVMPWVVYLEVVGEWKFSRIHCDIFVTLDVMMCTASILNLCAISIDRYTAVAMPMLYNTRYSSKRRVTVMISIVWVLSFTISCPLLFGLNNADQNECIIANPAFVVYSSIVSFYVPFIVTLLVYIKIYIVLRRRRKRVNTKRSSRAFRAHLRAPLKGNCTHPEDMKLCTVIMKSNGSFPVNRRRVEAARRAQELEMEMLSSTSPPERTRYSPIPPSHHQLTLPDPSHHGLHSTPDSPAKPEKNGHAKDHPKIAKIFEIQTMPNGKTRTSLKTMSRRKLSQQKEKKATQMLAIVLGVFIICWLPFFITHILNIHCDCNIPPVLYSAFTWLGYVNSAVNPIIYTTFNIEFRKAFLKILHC
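PathHunter D2 cells, attached overnight at 37 deg C, received compound in DMSO plus dopamine at EC20 (50 nM final) for 90 min at 37 deg C. Beta-arrestin recruitment was read as luminescence after 1 h with detection reagent at ambient temperature.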
Six1-Eya2 blk = blocks human Six1 binding to Eya2; 0.56% of 360,000 active; AID 651725; Q15475+O00167; activity change, % (no concentration beside the values); AlphaScreen GST-Six1/His-Eya2 binding, biochemical; hits give low values; control for the full effect not named in the record; in the data active = activity change below about -65%; inconclusive = about -30% to -65%; inactive = above about -30%; also: % is scaled to controls: 0 for no effect and ±100 for the full control effect; compound concentration not given in the record
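Homogeneous AlphaScreen proximity assay pairing GST-Six1 with His-tagged Eya2 (added as 5X mix: 250 nM and 500 nM) in 50 mM Tris pH 8.0, 300 mM NaCl, 1 mM TCEP. Glutathione donor and nickel acceptor beads; 1 h, 37 °C, dark.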
CtBP-E1A blk = blocks the CtBP interaction with E1A. AlphaScreen GST-E1A/His-CtBP binding, 1536-well; hits give low values; control for the full effect not named in the record. activity change, % (concentration not given with the values). 0.49% of 340,000 active; in the data active means activity change below about -65%; inconclusive means about -30% to -65%; inactive means above about -30%; also: % is scaled to controls: 0 for no effect and ±100 for the full control effect
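Protein mix (5X: 125 nM each GST-E1A, His-CtBP) was incubated with pinned compound 2 h at 37 deg C in dark, in 50 mM Tris pH 8.0 buffer with 300 mM NaCl. Glutathione donor and nickel acceptor beads followed; AlphaScreen signal read after 1 h.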
D2 agonist = human D2 receptor agonism in beta-arrestin assay; P14416; DiscoveRx PathHunter D2 beta-arrestin, luminescence, 90 min; 100% = 57 uM dopamine signal; activation, % (no concentration beside the values); 0.084% of 360,000 active; AID 624465; in the data active = activation above about 40%; inconclusive = about 15% to 40%; inactive = below about 15%; also: compound concentration not given in the record; the text of the record calls up to 30% inactive
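DiscoveRx PathHunter D2 beta-arrestin cells (2,100/well) attached overnight, then compound-stimulated 90 min at 37 C in HBSS/10 mM HEPES/0.1% Tween-20 buffer; beta-galactosidase complementation read by luminescence after 1 h at ambient temperature. Dopamine 57 uM final (EC100) as control.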
PINK1 modulator = PINK1 expression modulation | PINK1 immunofluorescence, high-content cytometry, 24 h | 0.2% of 410,000 active | AID 624263 | Potency, µM (titrated, usually from 76.6 µM), inactives show at the top dose activation (PINK1 increase), actives largely listed as activators; active = well fitted activation curve with a large enough effect; inconclusive = small, poorly fitted or top-dose-only effect; inactive = flat fitted curve, though single readings scatter; cell line not stated here;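 also: potency is read from the fitted curve at half-maximal effect; % of control where 0% means no effect; nearly all actives have a fitted effect of over 65% in size; a mitochondrial uncoupler was the plate control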
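Decision-based qHTS: stable cells, 24 h exposure to five compound concentrations, CCCP as control. Fixed cells stained for PINK1 plus nuclear, mitochondrial and cell markers, cytometer read.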
Sfp PPTase inh = Sfp phosphopantetheinyl transferase inhibition. AID 1490. Q9F4F7. Potency, µM, inactives show max response, negative = inhibition, actives largely listed as inhibitors. 3.5% of 310,000 active. Biochemical Sfp PPTase activity, qHTS; active = well fitted inhibition curve with a large enough effect; inconclusive = small, poorly fitted or top-dose-only effect, or another doubt; inactive = no such curve, though single readings can be large or run the other way;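 also: the enzyme is Sfp with the accession as filed and its product quenches rhodamine fluorescence; potency is read from the fitted curve at half-maximal effect; 0% = enzyme reaction without inhibitor and -100% = no enzyme wells; top concentration of the series not given in the record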
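With Hepes-Na pH 7.6 buffer containing 10 mM MgCl2, Sfp (15 nM) modified BHQ-2-YbbR (12.5 uM) using rhodamine-CoA (5 uM). Two reads 30 minutes apart at 525/598 nm yielded each well's rate.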
TRPV1 potentiator = enhances activation of the human vanilloid receptor TRPV1. Q8NER1. TRPV1-expressing cells, Fluo-8 calcium influx, capsaicin EC20 potentiation; host cell line not named in the record; control for the full effect not named in the record. potentiation, % at 8.33 µM. 0.02% of 320,000 active. AID 540277; active means potentiation above 80%; inconclusive means 30% to 80%; inactive means below 30%; also: 0% is about no effect
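TRPV1-expressing cells were cultured overnight at 35.5C and loaded with Fluo-8 calcium dye for 40 to 90 min at room temperature. After a 10 s baseline, compound was added and calcium influx was read kinetically for 3 min (ex 480/em 520 nm).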
An asterisk follows results filed as active; u = inconclusive; x = not tested or not shown; & = joins results of further samples; [ ] = remark or other dose.

SMILES	D2 potentiator	Six1-Eya2 blk	CtBP-E1A blk	D2 agonist	PINK1 modulator	Sfp PPTase inh	TRPV1 potentiator
Cc1onc(-c2c(Cl)cccc2Cl)c1C(=O)NCc1ccccn1	-0.6	3.9	4.4	0.4	6.4%[38.3 µM]	0.5%	-0.8
Cc1cccc(C)c1NC(=O)CSc1nnc(-c2ccco2)c(-c2ccco2)n1	8.6	-66.7*	-26.3	-0.2	1.0%	11.2µM*	-16.4
CCCCOC(=O)Nc1ccc2c(C)cc(=O)oc2c1	-8.7	0.4	0.5	-2.8	-1.3%	2.7%	-7.5
O=C(CN1C(=O)NC2(CCCc3ccccc32)C1=O)NC1CCCCC1 (stereo not given)	-19.8	2.9	7.8	-4.5	0.7%	x	-9.6
CCS(=O)(=O)N1CCCC(C(=O)NCCCOC)C1 (stereo not given)	-4.3	0.0	4.1	0.2	-1.4%	12.9%	13.3
CCC(=O)c1ccc(OCC(=O)Nc2ccccc2C(=O)NC2CC2)cc1	-4.2	6.5	-8.0	-0.8	-2.9%	x	0.2
Nc1c(/C=C2/C=CC(=O)C(O)=C2)c(=O)nc2sc(CC(=O)N3CCCCC3)nn12	-0.1	27.6	x	0.0	2.2%	-0.9%	-13.7
CCOc1cc(-c2c(C#N)c(=O)[nH]c3c2c(C)nn3-c2ccc(F)cc2)ccc1O	-8.1	u	u	-1.7	-0.2%	6.5%	5.3
COc1ccccc1N=C1NC(=O)/C(=C/c2ccc(N(C)C)cc2)S1	-41.8	-0.8	x	-5.7	2.5%	-15.5%	3.7
COCc1nnc(NC(=O)c2cccc(NC(=O)C(C)C)c2)s1	5.3	6.8	3.2	-2.6	2.7%	9.1%	3.0

The closing two records of the section above are carried over, then new ones follow:
SMILES	D2 potentiator	Six1-Eya2 blk	CtBP-E1A blk	D2 agonist	PINK1 modulator	Sfp PPTase inh	TRPV1 potentiator
COc1ccccc1N=C1NC(=O)/C(=C/c2ccc(N(C)C)cc2)S1	-41.8	-0.8	x	-5.7	2.5%	-15.5%	3.7
COCc1nnc(NC(=O)c2cccc(NC(=O)C(C)C)c2)s1	5.3	6.8	3.2	-2.6	2.7%	9.1%	3.0
CC1=C(C(=O)OCC2CCCO2)C(c2ccc(C)cc2)C2=C(CC(C)(C)CC2=O)N1 (stereo not given)	-2.8	1.5	14.0	0.4	3.5%	-18.7%	-0.6
O=C(O)C1C2C=CC(C2)C1C(=O)NCc1ccccc1F (stereo not given)	-0.6	0.6	6.7	4.2	2.4%	5.3%	-16.2
CN(c1ccccc1)S(=O)(=O)c1ccc(Cl)c(C(=O)Nc2nn[nH]n2)c1	-5.0	-1.1	4.1	-3.5	0.6%	-11.7%	-2.9
C[C@@H]1Cn2cnc(C(=O)NCC(=O)OC(C)(C)C)c2C(=O)N1	x	1.9	0.7	2.4	0.4%	x	x
COc1ccc(S(=O)(=O)N(CC(=O)Nc2ccc3c(c2)OCO3)c2ccccc2OC)cc1	3.6	-16.9	-9.1	-1.4	28.2%	13.0%	-1.8
CC(=O)Nc1ccc(NC(=O)CSc2nnc(-c3cccs3)n2N)cc1	-0.2	6.9	14.1	-2.9	0.6%	x	-16.7
COc1ccccc1NS(=O)(=O)c1cccc(NC(=O)Cc2cccs2)c1	7.3	6.0	-10.6	-3.2	-0.8%	1.5%	-4.7
CCOCCCn1cnc2c([nH]c3cc(OC)ccc32)c1=O	-1.0	0.6	-4.1	0.5	1.0%	11.3%	-6.8
Cc1cccc(NC(=O)c2cc3n(n2)C(C(F)(F)F)CC(c2ccc4c(c2)OCO4)N3)c1 (stereo not given)	6.1	-3.9	-3.0	2.2	0.9%[38.3 µM]	24.9%	3.7
C[C@H](CO)N1C[C@H](C)[C@H](CN(C)S(=O)(=O)c2ccc(-n3cccn3)cc2)OCc2cnnn2CCCC1=O	-12.2	-15.5	-9.0	4.1	0.8%	x	x
CCCCc1ccc(NC(=S)NCc2cccnc2)cc1	-3.4	-6.3	0.5	4.9	0.9%	-3.7%	20.1
CCC(=O)c1ccc(N2CCCC2)c(F)c1	-0.3	7.4	4.0	-1.6	0.6%	-3.1%	u
O=C(CNCc1cccs1)Nc1ccc(N2CCCCCC2)cc1	-24.9	u	u	-6.1	3.4%	-58.8%	-5.6
Cc1cc2nnc(SCC(=O)NCc3ccco3)n2c2ccccc12	2.2	0.3	4.8	-1.2	19.6%	x	x
Nc1nnc(N2CCCCCC2)s1	0.7	4.8	6.7	0.9	0.3%	-6.7%	6.2
Cc1cc(C)c(NC(=O)c2cc(=O)c3ccccc3o2)c(C)c1	-8.7	3.8	x	-2.8	2.7%	9.4%	3.6
C/C(CC(=O)Nc1ccc2c(c1)OCCO2)=N\NC(=O)COc1ccccc1	-8.0	-2.0	22.3	-0.3	5.1%	15.1%	5.5
CCC(Oc1ccccc1)C(=O)OCC(=O)Nc1c(C)nn(-c2ccccc2)c1C (stereo not given)	-1.3	-2.3	3.8	6.1	0.1%	x	x
COc1cccc(NC(=O)NCCCSC2CCCCC2)c1	-6.3	-5.9	-6.0	-0.3	-1.7%[38.3 µM]	15.2%	-10.9
COc1ccc(NC(=O)CSc2nnc(Cc3ccccc3)c(=O)n2N)cc1	-10.8	-0.6	-6.1	-1.7	-4.0%	x	16.2
COCCn1c(C)cc(C(=O)CSc2nc3ccccc3c(=O)[nH]2)c1C	3.6	-0.3	0.0	0.6	1.4%	-13.0%	-2.4
COc1ccccc1C(c1nnnn1Cc1ccco1)N1CCN(c2cccc(C)c2C)CC1 (stereo not given)	-2.0	-9.8	-13.9	-1.4	0.5%	25.0%	0.0
CC(C)NS(=O)(=O)c1ccc(NC(=O)C(C)Oc2ccc(C(=O)c3ccccc3)cc2)cc1 (stereo not given)	-12.8	-10.4	18.4	0.3	1.1%	15.7%	-4.6
O=C1CC(N2CCN(c3ccc(F)cc3)CC2)C(=O)N1c1ccccc1 (stereo not given)	-1.8	3.8	-10.1	-3.4	-1.9%	0.5%	9.1
Cc1cc(C)n2nc(C(=O)NCC(=O)Nc3ccc(F)c(F)c3)nc2n1	-5.1	3.4	9.5	-4.6	-2.0%	x	10.6
Cc1nc2ccccn2c1CN(C)C(=O)C1CCC(=O)N(CCc2cccc(F)c2)C1 (stereo not given)	1.8	1.0	4.3	2.8	0.2%	6.5%	-18.1
COc1ccc(COc2cc(-c3cccc(OC)c3)nc3ccc(NC(=O)c4ccc(C)cc4)cc23)cc1	-5.1	-15.5	-5.4	1.8	13.0%	-0.9%&4.7%	4.9
O=C1NC2(CCCCC2)C(=O)N1Cc1cc(=O)n2ccsc2n1	0.5	6.7	2.4	-1.7	-0.1%	9.9%	-0.6
COc1ccc(NC(=O)CCOc2ccc(C)cc2)c(OC)c1	-17.2	4.7	-1.9	1.3	3.2%	-7.7%	-3.4
CC1CCCCN1C(=O)COC(=O)CNC(=O)c1ccc(Cl)cc1Cl (stereo not given)	9.2	4.6	-1.8	2.4	-2.3%	x	5.2
COc1ccc(-c2cc(-c3ccccc3)nc(N3CCCC3)n2)cc1OC	1.6	49.5	51.2	1.4	4.4%[38.3 µM]	-7.3%	-1.1
COc1ccc(S(=O)(=O)N2CCN(C(=O)C3CC(=O)N(c4ccccc4F)C3)CC2)cc1OC (stereo not given)	4.1	2.3	x	-1.0	-0.6%	x	x
COc1cc(NC(=O)N[C@@H](Cc2ccccc2)C(=O)O)cc(OC)c1	-3.8	5.3	9.9	4.6	-1.8%	24.9%	-5.9
CCCCNC(=O)C1(C)CCN1C(=O)c1oc2ccccc2c1C (stereo not given)	-8.1	2.2	2.1	-5.1	1.0%	x	x
O=C(Nc1ccc(N2CCCC2)c(Cl)c1)c1ccc2c(c1)OCCO2	-13.5	-13.5	-3.6	-5.2	u	x	x
CC(=O)NN1C(=O)/C(=C2/Sc3ccccc3N2C)SC1=S	4.1	-2.2	x	-4.5	28.8%	-1.0%	15.2
CC(=O)N1CCN(CC(=O)Nc2c(Cl)ccc(C)c2Cl)CC1	-2.3	6.3	0.0	-2.6	0.7%	19.5%	-1.3
Cc1cc(=O)n2nc(N3CCCC(C(=O)N4CCc5ccccc54)C3)sc2n1 (stereo not given)	-5.8	3.4	-0.5	-2.7	-1.0%	7.4%	u
COC(=O)c1nc2n(n1)C(c1ccccc1OC)C1=C(CCCC1=O)N2 (stereo not given)	-15.6	0.0	7.2	-3.0	-2.6%	14.2%	7.5
Cc1ccccc1NC(=O)CN(C)S(=O)(=O)c1ccc2c(c1)n(C)c(=O)c(=O)n2C	-4.8	3.1	2.2	-2.5	-0.5%	13.3%	u
CN(CC(=O)Oc1ccc(-c2nnco2)cc1)S(=O)(=O)c1ccc(F)cc1	-2.6	-17.7	-6.7	-2.5	-0.6%	x	-9.7
Cc1ccc2c(c1)C1CN(C)CCC1N2C(=O)c1ccccc1NS(=O)(=O)c1cccc(C(F)(F)F)c1 (stereo not given)	-23.1	1.5	-0.8	1.0	1.0%	-0.9%	6.5
O=C(Cc1ccccc1F)NC1CCCc2ccccc21 (stereo not given)	-4.1	-3.1	-1.4	-4.7	-2.4%	-0.2%	-12.9
Cc1ccc(-c2ccc(=O)n(CC(=O)NCc3ccco3)n2)cc1	-14.0	-4.4	-3.2	-3.0	0.7%[38.3 µM]	9.3%	x
Cc1cc(NS(=O)(=O)c2ccc(NC(=O)c3cccc(OC(F)F)c3)cc2)nc(C)n1	4.8	-19.8	0.0	-1.4	-0.3%	24.1%	11.0
CCCCCCn1cc(CN2CC(N(C)C)CS2(=O)=O)nn1 (stereo not given)	x	-2.4	0.6	x	-0.4%	x	x
COc1cc2cc(C(c3nnnn3C3CCCC3)N3CCCCCC3)c(=O)[nH]c2cc1OC (stereo not given)	-1.9	-0.7	-3.3	-2.5	2.1%[38.3 µM]	3.1%	-8.9
COc1ccc(OC)c(C(=O)NC(CC(N)=O)c2ccc(NCC3CC3)c([N+](=O)[O-])c2)c1 (stereo not given)	-6.7	-9.0	-4.7	-2.0	-0.2%	8.5%	5.3
CSC1=NCCN1C(=O)c1c(F)cccc1F	1.8	7.2	1.9	1.5	5.0%	26.8%	-12.2
CC(=O)N1N=C(c2ccccc2)CC1c1ccccc1 (stereo not given)	0.7	1.1	7.5	-1.4	-0.7%	2.9%	-13.2
COc1ccc(-c2csc(N3C(=N)SCC3=O)n2)cc1	-9.9	-0.9	3.8	0.5	-0.9%[38.3 µM]	-19.3%	x
